Source: PubChem
Biofilm kill mix – mixtures killing C. albicans biofilm; AID 1242; inhibition, % at 7.6 µM; C. albicans biofilm persisters + clotrimazole, fluorescence viability; primary screen in compound mixtures of four per well; actives 0.02% (n = 120,000);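 active means inhibition above 30.3% in the primary screen of four-compound pools, then above 30% when the compound was retested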;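 further: compounds exposed to preformed 24 h biofilms for 48 h; the number belongs to the whole pool; some results filed as inactive read as strong as hits; inactives centre near 12; 0% = biofilm with clotrimazole alone and 100% = kill control; retested singly at about 60 µM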
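Incubation: 24 h biofilm formation, then 48 h compound exposure, 37 °C | Material: C. albicans biofilms | Buffer or medium: RPMI/MOPS medium, pH 7.0 | Measured by: 2-h Alamar Blue fluorescence, 535/590 nm excitation/emission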
The depositor's hits bear a star. An excerpt; count on the stated rates, not on these rows.

What do the screens show for `CC(NC(=O)c1cccnc1)C(c1cccs1)N1CCN(c2ccccc2F)CC1` (stereo not given)?
Biofilm kill mix: 12.7

What do the screens show for `O=C(COC(=O)c1ccc2c(c1)C(=O)N(Cc1ccncc1)C2=O)Nc1cccc2ccccc12`?
Biofilm kill mix: 27.9

What do the screens show for `COc1ccc2cc(CN(CC3CCCO3)C(=O)Nc3ccccc3)c(=O)[nH]c2c1` (stereo not given)?
Biofilm kill mix: 26.1

Results for CC1(C)C=C(c2ccc(C(=O)O)s2)CC(C)(C)N1 ?
Biofilm kill mix: 8.5

Results for Cc1cccc(Nc2ncnc3ccc(Br)cc23)c1 ?
Biofilm kill mix: 12.2

What do the screens show for `COCCN1C(=O)c2cc(C(=O)Nc3cccc(F)c3)ccc2C1Nc1cccc(F)c1` (stereo not given)?
Biofilm kill mix: 13.8

Results for CSc1sc(-c2ccnc(=S)[nH]2)c(-c2ccccc2)c1C#N ?
Biofilm kill mix: 10.6

How did O=C(Cn1cc([N+](=O)[O-])cn1)N1CCc2ccccc2C1 do in these assays?
Biofilm kill mix: 12.3

How did C/C(=N\NC(N)=O)c1cccc(Cl)c1 do in these assays?
Biofilm kill mix: -2.9

How did O=C(CN1CCN(Cc2ccc3c(c2)OCO3)CC1)Nc1cc(S(=O)(=O)N2CCCC2)ccc1Cl do in these assays?
Biofilm kill mix: 1.0

What do the screens show for `Cc1cccc(Nc2nc(N)nc(CCl)n2)c1C`?
Biofilm kill mix: 5.4

What do the screens show for `Cc1c(Cl)cccc1NC(=O)CNC(=O)c1ccccc1F`?
Biofilm kill mix: 22.0

What do the screens show for `COc1ccc(NC(=O)CSc2nccn2C)cc1S(N)(=O)=O`?
Biofilm kill mix: 13.7

How did Cn1c(C2=C(O)CN(Cc3ccccc3)C2=N)[n+](C)c2ccccc21 do in these assays?
Biofilm kill mix: -1.0

How did N/C(=N\OC(=O)c1cccc(Cn2cc(C(F)(F)F)ccc2=O)c1)c1ccccc1 do in these assays?
Biofilm kill mix: 27.4

Continued, overlapping the part above by 2 compounds.
How did Cn1c(C2=C(O)CN(Cc3ccccc3)C2=N)[n+](C)c2ccccc21 do in these assays?
Biofilm kill mix: -1.0

How did N/C(=N\OC(=O)c1cccc(Cn2cc(C(F)(F)F)ccc2=O)c1)c1ccccc1 do in these assays?
Biofilm kill mix: 27.4

Results for CCn1c(C(=O)NCCCc2ccccc2)cc2sccc21 ?
Biofilm kill mix: 10.2

What do the screens show for `COc1ccc(-c2cc(C(F)(F)F)nc(N)n2)cc1`?
Biofilm kill mix: 7.2

What do the screens show for `CSc1nnc(C)c(=O)n1COC(=O)/C=C/c1ccc2c(c1)OCO2`?
Biofilm kill mix: 8.3

Results for CC(=O)c1cc2c(cc1N/C(=N/S(=O)(=O)c1ccc(C)cc1)c1ccc(Cl)cc1)OCO2 ?
Biofilm kill mix: 10.3

What do the screens show for `O=C(O)c1ccccc1-c1nc(-c2ccccc2)c(-c2ccccc2)[nH]1`?
Biofilm kill mix: 13.9

How did CC(C)(C)C(=O)N1CCN(c2ccc([N+](=O)[O-])c(NCc3cccnc3)c2)CC1 do in these assays?
Biofilm kill mix: 8.5

How did CCOc1ccc(Br)cc1CN(CC)CC do in these assays?
Biofilm kill mix: 1.3

How did CNC(=S)N1CCN(c2nc3ccccc3s2)CC1 do in these assays?
Biofilm kill mix: 10.8

What do the screens show for `COc1cc(C(C)=O)ccc1OCC(=O)NCC1(N2CCCCC2)CCCCC1`?
Biofilm kill mix: 7.4

What do the screens show for `CC1CCCN(C(=O)C2CCC(CNc3c(N4CCCCC4)c(=O)c3=O)CC2)C1` (stereo not given)?
Biofilm kill mix: 16.0

Results for Cc1cc(=O)nc2c3ccccc3n(C(C)C(=O)Nc3c(F)c(F)c(F)c(F)c3F)n12 (stereo not given) ?
Biofilm kill mix: 7.8

Results for C/C(=N\NC(=O)c1cc(Cl)ccc1O)c1ccc(Br)s1 ?
Biofilm kill mix: 25.2

Results for O=C(O)c1cc(N/N=C/c2cccnc2)ccc1Cl ?
Biofilm kill mix: 8.7

Results for CC(=O)Nc1ccc(S(=O)(=O)Oc2ccccc2N2CCCCC2)cc1 ?
Biofilm kill mix: 22.1

What do the screens show for `CSc1ncccc1C(=O)NCCc1ccc(Cl)cc1`?
Biofilm kill mix: 19.1

Results for COc1ccccc1N1CCN(C(=O)c2ccc(Cn3c(=O)[nH]c4ccsc4c3=O)cc2)CC1 ?
Biofilm kill mix: 25.7

How did CN(CCC#N)C(=S)Nc1ccc(S(=O)(=O)N2CCOCC2)cc1 do in these assays?
Biofilm kill mix: 9.8

Results for Cc1nn(-c2cccc(Cl)c2)c(Cl)c1/C=N/NC(=O)c1cccs1 ?
Biofilm kill mix: -10.7

Results for COc1ccccc1C(=O)C1CCCN(Cc2cn[nH]c2C2CCCCC2)C1 (stereo not given) ?
Biofilm kill mix: 17.0

What do the screens show for `CCCCNC(=O)C12CCC(C)(C(=O)C1Br)C2(C)C` (stereo not given)?
Biofilm kill mix: 15.9

What do the screens show for `O=C(CSc1cccc2cccnc12)N/N=C/c1ccc(O)cc1`?
Biofilm kill mix: 26.3

What do the screens show for `Cc1nnc(SCC(=O)N2CCCC(C(=O)c3ccc(Cl)cc3)C2)o1` (stereo not given)?
Biofilm kill mix: 5.1

What do the screens show for `CC(=O)c1c(C)n(CC(=O)NCc2ccco2)c2ccccc12`?
Biofilm kill mix: 20.5

What do the screens show for `Cc1ccc(C)c(NC(=O)C(Sc2cccc[n+]2[O-])c2ccccc2)c1` (stereo not given)?
Biofilm kill mix: 12.2

How did CN(C)C(=O)CSc1nnc([C@H](Cc2ccccc2)NC(=O)OC(C)(C)C)o1 do in these assays?
Biofilm kill mix: 11.8

What do the screens show for `COc1ccc(NC(=O)C/C(C)=N/NC(=O)C(=O)Nc2cccc(Cl)c2C)c(OC)c1`?
Biofilm kill mix: 4.2

How did Cn1c(=O)c(Oc2ccc(F)cc2)c(O)c2ccccc21 do in these assays?
Biofilm kill mix: 6.3

What do the screens show for `Cc1cc(C)n(CCN(C)Cc2cn[nH]c2-c2ccc(F)cc2F)n1`?
Biofilm kill mix: 13.0

What do the screens show for `O=C(/C=C/c1ccccc1[N+](=O)[O-])OC1CCCCC1=O` (stereo not given)?
Biofilm kill mix: 11.7

How did O=C(c1cc(COc2ccc(F)cc2F)on1)N1CCSCC1 do in these assays?
Biofilm kill mix: 0.3

How did CSc1ccccc1C(=O)C1CCCN(C(=O)c2csnn2)C1 (stereo not given) do in these assays?
Biofilm kill mix: 14.9

What do the screens show for `CCc1cc(-c2n[nH]c(CCC(=O)O)c2-c2nc3ccccc3n2C)c(O)cc1O`?
Biofilm kill mix: 19.4

What do the screens show for `CC1=C(c2ccc(C)cc2)[N+](=O)C(C)(C)N1[O-]`?
Biofilm kill mix: -6.5

What do the screens show for `Cc1cc(/C=C2/NC(=S)NC2=O)c(C)n1-c1cccnc1`?
Biofilm kill mix: 1.2

Results for CC(C)(C)OC(=O)N1CCC2(CC1)Oc1ccc(F)cc1C(=O)C21CC(c2cccnc2)=NO1 (stereo not given) ?
Biofilm kill mix: 1.6

How did O=C(COC(=O)c1ccc2[nH]c3c(c2c1)CCCC3)Nc1ccccc1 do in these assays?
Biofilm kill mix: 12.4

Results for Cc1nnc(NC(=O)c2ccccc2-c2ccccc2C(=O)O)s1 ?
Biofilm kill mix: -4.1

What do the screens show for `CCNc1nc(NC(C)C)nc(Oc2ccc(=O)n(C)n2)n1`?
Biofilm kill mix: 8.7

Results for CC1=NS(=O)(=O)c2cc(Cl)ccc2N1 ?
Biofilm kill mix: 10.1

How did COC(=O)CN=C1OC(=O)N2C(=O)C3=C4[C@@H](C[C@H]5C(=O)N(c6ccccc6)C(=O)[C@H]5[C@H]4[C@@]12Cc1ccccc1)[C@H]1C(=O)N(c2ccccc2)C(=O)[C@H]1[C@H]3C do in these assays?
Biofilm kill mix: 0.6

What do the screens show for `C=CCn1c(O)c(C(CC)=NCc2cccnc2)c(=O)[nH]c1=O`?
Biofilm kill mix: -4.0

How did CCOC(=O)COc1ccc2c(=O)c(-c3ccccc3)coc2c1 do in these assays?
Biofilm kill mix: -22.9

How did Nc1nc(SCC(=O)NC2CCCc3ccccc32)n[nH]1 (stereo not given) do in these assays?
Biofilm kill mix: 11.9

What do the screens show for `CS(=O)(=O)N1CCCC(C(=O)N2CCN(c3cccc(Cl)c3)CC2)C1` (stereo not given)?
Biofilm kill mix: 12.7

What do the screens show for `S=C1NCCOCCOCCOCCOCCNC(=S)N2CCOCCOCCN1CCOCC2`?
Biofilm kill mix: 17.8

Results for CN(C)C(=O)c1ccc(-n2cnc3ccccc3c2=O)cc1 ?
Biofilm kill mix: 4.8

What do the screens show for `COc1ccccc1Oc1nc(-c2cccnc2)nc2ccccc12`?
Biofilm kill mix: 22.3

How did CCOC1OC(=O)C(Cl)=C1Nc1ccc(C)cc1C (stereo not given) do in these assays?
Biofilm kill mix: 14.6

Results for CCc1c(O)nc(SCC(=O)Nc2nc3ccccc3s2)n(-c2ccccc2)c1=O ?
Biofilm kill mix: 7.3

Results for COc1ccc(C2CC2C(=O)c2ccccn2)cc1 (stereo not given) ?
Biofilm kill mix: 9.1

What do the screens show for `O=C(CSc1ccccc1)Nc1ccc(-c2nc3ccccc3[nH]2)cc1`?
Biofilm kill mix: 14.3

Results for CN(C)c1ccc(NC(=O)/C=C/c2ccccc2Cl)cc1 ?
Biofilm kill mix: 22.2

Results for Cc1nn(-c2ccccc2)c(N)c1Sc1cccc([N+](=O)[O-])c1 ?
Biofilm kill mix: 21.4

How did CCc1c(C)sc(NC(=O)C2CC2)c1C(=O)OC(C)C do in these assays?
Biofilm kill mix: 4.6

How did O=C(O)c1ccc2c(c1)SC1=NS(=O)(=O)CCN12 do in these assays?
Biofilm kill mix: 12.7

Results for COC(=O)c1cn(NC(=O)c2ccc([N+](=O)[O-])c(C)c2)c(=O)c2ccccc12 ?
Biofilm kill mix: 8.6

What do the screens show for `CCC(=O)Nc1c(C)n[nH]c1C`?
Biofilm kill mix: -2.6

Results for Cc1ccc(S(=O)(=O)N2CCN(Cc3nc4sc5c(c4c(=O)[nH]3)CCCC5)CC2)cc1 ?
Biofilm kill mix: 14.3

How did CC1CCN(C(=O)C(C)c2ccc([N+](=O)[O-])cc2)CC1 (stereo not given) do in these assays?
Biofilm kill mix: 3.5

How did O=C(O)CNC(=S)N(Cc1ccc(F)cc1)C1CCCCC1 do in these assays?
Biofilm kill mix: 7.2

What do the screens show for `COc1ccccc1C(=O)NC(C)C(c1cccs1)N1CCN(C)CC1` (stereo not given)?
Biofilm kill mix: 13.8

How did COc1ccc(Cl)cc1S(=O)(=O)N1CCC(O)(c2ccc(Cl)cc2)CC1 do in these assays?
Biofilm kill mix: 19.6

How did C/C=C/C=C\C(=O)Nc1cccc(C2=NOC3(C2)C[C@H](C(N)=O)N(C(=O)/C=C/C)C3)c1 (stereo not given in full) do in these assays?
Biofilm kill mix: 9.4

How did CCn1c(C)nc2cc(S(N)(=O)=O)ccc21 do in these assays?
Biofilm kill mix: 22.0

Results for CCOc1ccc(-n2c(-c3ccc(OC)cc3)c[n+]3c2CCCCC3)cc1 ?
Biofilm kill mix: 26.3

Results for O=C(O)CSc1ccc(Oc2ccc(SCC(=O)O)cc2)cc1 ?
Biofilm kill mix: 14.7

How did COc1ccc(CCCc2n[nH]c(=S)o2)cc1 do in these assays?
Biofilm kill mix: 15.1

Results for CCN1CCc2nc(NC(=O)c3cc(F)c(F)cc3Cl)sc2C1 ?
Biofilm kill mix: -3.0

What do the screens show for `Cc1ccc(Cl)cc1N1CCN(C(=O)COc2ccc3c(c2)CCC3)CC1`?
Biofilm kill mix: 2.1

What do the screens show for `Cc1cc(C)n(-c2cc(N3CCN(S(=O)(=O)c4ccc(Cl)cc4)CC3)ccc2[N+](=O)[O-])n1`?
Biofilm kill mix: 12.4

What do the screens show for `Cn1cc([N+](=O)[O-])c(C(=O)NNC(=O)c2ccc([N+](=O)[O-])cc2Cl)n1`?
Biofilm kill mix: 3.6

What do the screens show for `NC(=O)c1sc2nc3c(cc2c1N)CCCCCC3`?
Biofilm kill mix: 19.6

What do the screens show for `CCOc1ccc(S(=O)(=O)N2CCc3cc(OC)c(OC)cc3C2)cc1`?
Biofilm kill mix: 10.4

How did O=C(CSc1nc2ncc(Cl)cc2[nH]1)NCC(=O)Nc1ccc(F)c(F)c1F do in these assays?
Biofilm kill mix: 24.2

How did COc1ccc2cc3cc(C(=O)NCc4cccnc4)oc3nc2c1 do in these assays?
Biofilm kill mix: 6.7

5 entries drawn at random from the list so far:
What do the screens show for `Cn1cc([N+](=O)[O-])c(C(=O)NNC(=O)c2ccc([N+](=O)[O-])cc2Cl)n1`?
Biofilm kill mix: 3.6

What do the screens show for `COc1ccccc1C(=O)NC(C)C(c1cccs1)N1CCN(C)CC1` (stereo not given)?
Biofilm kill mix: 13.8

What do the screens show for `CCOc1ccc(S(=O)(=O)N2CCc3cc(OC)c(OC)cc3C2)cc1`?
Biofilm kill mix: 10.4

Results for CCN1CCc2nc(NC(=O)c3cc(F)c(F)cc3Cl)sc2C1 ?
Biofilm kill mix: -3.0

How did CCn1c(C)nc2cc(S(N)(=O)=O)ccc21 do in these assays?
Biofilm kill mix: 22.0

(continued)
What do the screens show for `Cn1nnnc1NCc1cccc(Cl)c1`?
Biofilm kill mix: 10.9

Results for CC(=O)c1cc(C#N)c(SCc2ccccc2C#N)nc1C ?
Biofilm kill mix: 17.9

Results for Fc1cccc(COc2ccccc2CNc2ccccc2)c1 ?
Biofilm kill mix: 12.1

How did Cc1cc(Br)c(NC(=O)COn2nnc3ccc(S(C)(=O)=O)cc32)c(Br)c1 do in these assays?
Biofilm kill mix: 12.2

Results for Cc1cc(Br)c(NC(=O)CCl)c(Br)c1 ?
Biofilm kill mix: 10.7

How did Cc1ccc(NC(=O)CC2S/C(=N/N=C/c3ccco3)NC2=O)cc1Cl (stereo not given) do in these assays?
Biofilm kill mix: 10.7

What do the screens show for `O=C(O)c1ccc(NCc2cccc(Br)c2)cc1`?
Biofilm kill mix: 6.1

Results for COc1cc(/C=N/NC(N)=O)ccc1OC(=O)c1ccco1 ?
Biofilm kill mix: 19.5
